MT1-MMP act inh: MT1-MMP (human) activation inhibition; P50281; HT1080 RFP-PRO-GFP cells, GFP/RFP ratio fluorescence, overnight; percent of plate control window, DMSO zero; GFP/RFP ratio change, % at 20 µM; hit rate 0.061% among 360,000; AID 651647;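 active = GFP/RFP ratio change of at least 30% with cell ATP level not reduced by more than half and red fluorescence within 50% of control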; also: strong numbers were not always called active
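Compound: 20 µM single dose, 1% DMSO / System: HT1080 RFP-PRO-GFP cells / Controls: DMSO and RFP-L50D-GFP cell wells / Read-out basis: GFP/RFP fluorescence ratio / Schedule: overnight compound exposure at 37 °C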
UUG fidelity: alters start codon recognition fidelity in yeast. S. cerevisiae UUG-firefly luciferase reporter, luminescence/redox ratio. activity score, % at 18.7 µM. hit rate 0.13% among 350,000;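 active = replicate mean at a twofold rise or more, about +100% in these data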;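 also: firefly luciferase made from a UUG start codon reports start codon fidelity; reporter light over untreated wells divided by growth signal over untreated wells; some hits fall short of that in this replicate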
Rce1 inh: inhibitors of yeast Ras-converting enzyme. Q03530. yeast membranes, quenched prenylated peptide cleavage fluorescence. calls only. hit rate 0.27% among 290,000. AID 2563;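 active = fall in fluorescence gain of 50% or more versus controls, with final raw signal at or below 3038400; inconclusive = same 50% fall but final raw signal above 3038400; inactive = fall in fluorescence gain under 50%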;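 also: plate controls were neutral control wells for no effect and wells lacking membranes for full effect; tested at 10 µM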
Target sequence (Q03530 whole entry, looked up): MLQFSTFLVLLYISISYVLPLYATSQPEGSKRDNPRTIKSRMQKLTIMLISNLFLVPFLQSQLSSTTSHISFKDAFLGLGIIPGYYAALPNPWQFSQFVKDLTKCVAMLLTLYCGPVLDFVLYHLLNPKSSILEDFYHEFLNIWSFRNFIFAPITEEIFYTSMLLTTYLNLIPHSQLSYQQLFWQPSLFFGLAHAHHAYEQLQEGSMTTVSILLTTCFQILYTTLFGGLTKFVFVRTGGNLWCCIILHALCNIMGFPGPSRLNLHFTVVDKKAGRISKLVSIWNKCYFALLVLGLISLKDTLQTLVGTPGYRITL
CSC inhib: blocks cancer stem cells; cancer stem cell-like cells viability, luminescence; inhibition, % at 7.5 µM; hit rate 1.1% among 300,000;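 active = mean at 75% or more and at least half the replicates too; inconclusive = mean and replicates disagree; tested in HMLE shEcad cells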;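 also: 0% = median of negative and 100% = median of positive control wells; the first replicate is given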
eIF4H FP inh: inhibitors of RNA binding by human eIF4H | Q15056 | eIF4H fluorescence polarization binding assay | inhibition, % at 35 µM | hit rate 0.94% among 290,000;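 active = 50% or more with normal probe brightness, or confirmed in later tests; inconclusive = above 50% with abnormal brightness, or retests that disagree; inactive = below 50% or failed in later tests; about a fifth of its hits are not listed in these tables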;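 also: calls also rest on retests at 20 µM and on dose response follow-up; 0% = protein and probe with vehicle and 100% = probe without protein; strong numbers were not always called active; many hits fall short of the cut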
Env fusion inh: blocks HIV Env-driven cell-cell fusion; hit rate 1.1% among 360,000; AID 651610; HeLa-JRFL Env/CEM21 cell fusion, luciferase; inhibition, % at 12.3 µM;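 active = mean replicate inhibition score of at least 50 and every replicate individually at or above 50; inconclusive = only one of the two criteria met; inactive = mean below 50 and not all replicates reaching 50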;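 also: 0% = plate neutral controls and 100% = maraviroc near 300 nM; one replicate is shown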
PABP FP inh: blocks human PABP binding to poly(A) RNA; fluorescence polarization; hit rate 1% among 290,000; P11940; inhibition, % at 35 µM;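 active = 50% or more with normal probe brightness, or confirmed in later tests; inconclusive = above 50% with abnormal brightness, or retests that disagree; inactive = below 50% or failed in later tests; about a fifth of its hits are not listed in these tables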;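 also: calls also rest on retests at 20 µM and on dose response follow-up; controls were probe without protein and protein plus probe with vehicle; some compounds called inactive have numbers as strong as hits; many hits fall short of the cut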
eIF4H FP inh retest: further read-out of eIF4H FP inh, marked with its call; inhibition, %; compound at 20 µM; confirmation average;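 mean of two retest wells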
PABP FP inh retest: further read-out of PABP FP inh, marked with its call; inhibition, %; compound at 20 µM; confirmation repeats;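 mean of two retest wells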
MT1-MMP act inh RFP: further read-out of MT1-MMP act inh, marked with its call; RFP signal change, %; measured here: RFP expression control read;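 0 = vehicle wells; hits needed this value within 50% of zero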
* hit, by the source's call; i = inactive; ? = inconclusive; . = no result given.

SMILES | MT1-MMP act inh | MT1-MMP act inh RFP | UUG fidelity | Rce1 inh | CSC inhib | eIF4H FP inh | Env fusion inh | PABP FP inh | others
CCN1CCN(c2ccc(S(=O)(=O)N3CCOCC3)cc2NC(=O)c2ccc(C(F)(F)F)cc2)CC1 | 1 | -1 | -15 | i | -15 | . | 0 | .
O=C(CCCN1C(=O)/C(=C\c2cccs2)SC1=S)Nc1ccc(O)cc1C(=O)O | 5 | 10 | -1 | i | 0 | . | 3 | .
O=C(CSc1ccc2nnc(-c3ccc(F)cc3)n2n1)N1CCCc2ccccc21 | -9 | -7 | . | i | -3 | -13 | -13 | -8
C[C@H](NC(=O)[C@@H]1Cc2ccccc2CN1)C(=O)Nc1ccc2c(c1)OCO2 | -4 | 4 | . | i | 8 | -6 | -13 | 0
COc1ccc(NC(=O)Cn2nnc(C(=O)NCc3ccccc3)c2N)c(OC)c1 | 0 | 0 | -9 | i | 16 | -3 | 7 | ?
Cn1c(SCC(=O)NC2CCCC2)nnc1-c1ccccn1 | 2 | 3 | -14 | i | -4 | -6 | . | 2
O=C(CN1CCN(c2ccccn2)CC1)N(c1ccccc1)c1ccc2ccccc2c1 | -5 | 1 | -24 | . | -18 | -5 | -16 | 5
O=C(NNC(=O)c1ccccc1)C(=O)N1CCCCC1 | 0 | 3 | -2 | i | -5 | 1 | -15 | 0
Cc1cccc(C)c1NC(=O)c1cc(S(=O)(=O)N2CCC3(CC2)OCCO3)ccc1F | 3 | 4 | -3 | . | . | . | 10 | .
CCOC(=O)C1CCN(C(=O)c2ccc3c(=O)n4nc(Nc5ccccc5)sc4nc3c2)CC1 | 3 | 0 | 1 | . | . | . | -5 | .
CC1(C)Cc2c(C#N)c(N3CCOCC3)nc(-c3ccccc3)c2CO1 | -4 | -3 | 1 | i | 1 | -8 | . | -13
CC1(c2ccc(Cl)cc2)NC(=S)N2C1NC(=S)N2c1ccccc1 (stereo not drawn) | -1 | 2 | -32 | i | . | -8 | 12 | 0
Cc1ccc(OCCN2C(=O)S/C(=C\c3ccc(C)o3)C2=O)cc1 | -10 | 9 | . | i | 5 | 12 | 5 | -7
O=C(CCC1CCCN(C(=O)c2ccco2)C1)NCc1ccccc1F (stereo not drawn) | -4 | -1 | 0 | i | 9 | 4 | -21 | -2
Cc1ccc(C2=NNC(C(O)C(O)C(O)CO)S2)cc1 (stereo not drawn) | -1 | 1 | 13 | i | -4 | -2 | . | -2
C=CCN1CCC(=O)C(C(=O)OCC)=C1C(=O)OCC | 3 | 5 | 9 | . | . | . | -6 | .
CN(Cc1ccc(F)cc1)C(=O)c1ccc(NS(=O)(=O)c2ccc3[nH]c(=O)[nH]c3c2)cc1 | -5 | 3 | . | i | -2 | . | -21 | .
COc1ccc(-c2nc(NC(=O)C3=NN(c4cccc(C)c4)C(=O)CC3)sc2C)cc1 | -3 | -3 | -23 | . | 0 | 5 | 10 | -5
COC(=O)C(C(=O)OC)C(c1ccccc1)C(C(=O)c1ccccc1)[N+](=O)[O-] (stereo not drawn) | 1 | 2 | . | i | 6 | 0 | 7 | 15
COc1cccc(NC(=O)CN(C)C(=O)c2cccc(S(=O)(=O)N3CCN(c4ccc(F)cc4)CC3)c2)c1 | -7 | -24 | 10 | i | -11 | . | 39 | .
Cc1ccc(C(=O)CC(=O)COc2ccc(Cl)cc2C)cc1 | 5 | -3 | . | i | 10 | 4 | -7 | 3
Cc1cc(N/N=C/c2ccco2)c2ccccc2n1 | 3 | 9 | . | i | -8 | -8 | 6 | 12
COc1ccc(C2CC(c3ccc(Cl)cc3)Nc3nc(NC(=O)c4ccco4)nn32)cc1 (stereo not drawn) | 5 | -3 | -16 | i | . | 18 | . | 4
CCOc1ccc(N(CC(=O)NCc2ccc(Cl)cc2)S(=O)(=O)c2ccccc2)cc1 | -3 | -2 | 5 | i | -4 | -1 | 18 | -1
O=C(CN1CCN(S(=O)(=O)c2cccc(F)c2)CC1)NCC1(N2CCOCC2)CCCCC1 | -7 | 2 | -29 | . | . | . | 3 | .
CCc1nc2n[nH]c(N)c2c2c1CCCC2 | -1 | -3 | -25 | i | -7 | 13 | . | 0
Cc1ccccc1Nc1nc(N)[nH]c(=O)c1N=O | 2 | 4 | -4 | . | . | . | 31 | .
O=C(Nc1ccn(CCCNCCN2CCOCC2)c(=O)n1)OCc1ccccc1 | -1 | 4 | -4 | . | . | . | -8 | .
O=CN1CCN(C(=O)c2ccccc2F)CC1 | 8 | 8 | 0 | i | -1 | 1 | . | 4
CC(C)CCNC(=O)C(=O)Nc1cc2c3c(c1)CCC(=O)N3CCC2 | 4 | 4 | -11 | i | -6 | -6 | -10 | -1
COc1ccc(Nc2nnc(SCc3cn4c(C)cccc4n3)s2)cc1 | 0 | -3 | -12 | i | -8 | -8 | -165 | -9
COc1ccc(N(CC(=O)N2CCN(C)CC2)S(=O)(=O)c2ccccc2)cc1 | 1 | 2 | -5 | i | -3 | 18 | 2 | 19
O=C(CN1CCC(NC(=O)c2ccccc2Cl)CC1)NCc1ccccc1 | 0 | 1 | -16 | i | 0 | -2 | -6 | -6
Cc1ccc(OCCCCn2cnc3ccccc32)c(C)c1 | 7 | -14 | -23 | i | 3 | -5 | 47 | 32
O=C(NC12CC3CC(CC(C3)C1)C2)c1cnccn1 | 1 | 6 | -9 | i | -16 | 10 | 4 | 12
CCOc1ccc(CCNC(=O)c2ccc3ccccc3n2)cc1OCC | -1 | 0 | -3 | i | -9 | -4 | -4 | 3
O=C(Nc1c2c(nn1-c1ccc(F)cc1)CSC2)c1ccc(S(=O)(=O)N2CCOCC2)cc1 | 5 | 2 | -18 | i | 5 | -10 | . | -4
CCN(CC)c1ccc(NC(=O)c2ccc(=O)[nH]c2)cc1S(=O)(=O)Nc1ccccc1OC | -6 | -18 | . | i | 46 | 4 | -92 | -4
CCC1Sc2ccc(S(=O)(=O)CCC(=O)Nc3cccc(Br)c3)cc2NC1=O (stereo not drawn) | 0 | 0 | -17 | i | -7 | . | 0 | .
CN(C)c1nc(N(C)C)c2cnn(C)c2n1 | 0 | 0 | -1 | . | . | . | -7 | .
CC(/C=C1\SC(=S)N(CC(=O)O)C1=O)=C\c1ccccc1 | -2 | 5 | . | i | 0 | 1 | 13 | 13
COc1nc(Cl)cn(-c2ccc(Cl)cc2)c1=O | 3 | 0 | . | i | . | -5 | -19 | -8
COc1ccc(/C=C(/NC(=O)c2ccccc2)C(=O)N/N=C/c2cccs2)cc1OC | 0 | -3 | -33 | i | 6 | -8 | . | -4
O=C(NCc1cccnc1)c1cnn2ccccc12 | -2 | 4 | -12 | i | -8 | -5 | 0 | -2
CCN(CC)S(=O)(=O)c1ccc(N/N=C(\C)c2ccncc2)c([N+](=O)[O-])c1 | -1 | -4 | -18 | i | -5 | -6 | 2 | 0
Fc1ccc(Sc2nc(-c3ccccc3)nnc2C(F)(F)F)cc1 | -1 | -9 | 16 | i | . | -10 | . | 0
Cc1noc(-c2ccccc2OC(=O)c2ccccc2)n1 | -1 | 1 | -5 | i | -5 | 3 | . | -2
CCOc1ccc(CN2CCN(S(=O)(=O)c3ccc(NC(C)=O)cc3)CC2)cc1 | -4 | -24 | . | i | -5 | -5 | ? | 3
Cn1cc([N+](=O)[O-])c(C(=O)Nc2cc(Oc3cccnc3)cc([N+](=O)[O-])c2)n1 | . | . | . | i | -16 | -7 | . | 7
CCCN(CCC)C(=S)NC(=O)c1ccc(Cl)cc1Cl | 16 | -8 | -21 | i | 3 | -4 | 19 | 5

Structures from the list above with a CF3 group, in the order listed:
SMILES | MT1-MMP act inh | MT1-MMP act inh RFP | UUG fidelity | Rce1 inh | CSC inhib | eIF4H FP inh | Env fusion inh | PABP FP inh | others
CCN1CCN(c2ccc(S(=O)(=O)N3CCOCC3)cc2NC(=O)c2ccc(C(F)(F)F)cc2)CC1 | 1 | -1 | -15 | i | -15 | . | 0 | .
Fc1ccc(Sc2nc(-c3ccccc3)nnc2C(F)(F)F)cc1 | -1 | -9 | 16 | i | . | -10 | . | 0

Returning to the listing, starting 6 compounds before the break.
SMILES | MT1-MMP act inh | MT1-MMP act inh RFP | UUG fidelity | Rce1 inh | CSC inhib | eIF4H FP inh | Env fusion inh | PABP FP inh | others
CCN(CC)S(=O)(=O)c1ccc(N/N=C(\C)c2ccncc2)c([N+](=O)[O-])c1 | -1 | -4 | -18 | i | -5 | -6 | 2 | 0
Fc1ccc(Sc2nc(-c3ccccc3)nnc2C(F)(F)F)cc1 | -1 | -9 | 16 | i | . | -10 | . | 0
Cc1noc(-c2ccccc2OC(=O)c2ccccc2)n1 | -1 | 1 | -5 | i | -5 | 3 | . | -2
CCOc1ccc(CN2CCN(S(=O)(=O)c3ccc(NC(C)=O)cc3)CC2)cc1 | -4 | -24 | . | i | -5 | -5 | ? | 3
Cn1cc([N+](=O)[O-])c(C(=O)Nc2cc(Oc3cccnc3)cc([N+](=O)[O-])c2)n1 | . | . | . | i | -16 | -7 | . | 7
CCCN(CCC)C(=S)NC(=O)c1ccc(Cl)cc1Cl | 16 | -8 | -21 | i | 3 | -4 | 19 | 5
O=C(CSc1nc2nn(-c3ccccc3)c(=O)c-2c2n1CCCCC2)Nc1ccc(F)c(F)c1 | 3 | -11 | . | . | -10 | . | 53 | .
c1ccc2nc(-c3ccc(-n4ccnc4)cc3)ccc2c1 | 5 | -3 | -40 | i | 5 | 1 | -65 | -4
N=c1oc2ccccc2cc1C(=O)NC1CCCCCC1 | 1 | -1 | -66 | i | 4 | -19 | -80 | -6
Cc1nn(C)c(C)c1S(=O)(=O)N(CC(=O)Nc1ccccn1)c1ccc(C(C)C)cc1 | 1 | 9 | -1 | i | . | 1 | -2 | 0
COc1ccccc1N1CCN(Cc2ccc(C(=O)O)cc2)CC1 | -2 | 0 | -20 | i | 12 | -5 | -11 | 10
CCC(=O)c1ccc(N2CCCCCC2)c(F)c1 | -1 | 0 | -10 | i | -14 | 6 | . | 12
Cc1ccc(/C=N/NC(=O)c2cc3ccccc3cc2O)o1 | 2 | -1 | -15 | . | 6 | -4 | 0 | 4
CC(=O)c1c(C)[nH]c(C(=O)COC(=O)CCNS(=O)(=O)c2ccc(C)c(C)c2)c1C | -3 | -2 | 14 | . | -8 | . | 7 | .
CCCNC(=O)COc1coc(CN2CCN(Cc3ccccc3)CC2)cc1=O | 3 | 3 | -9 | i | -2 | -4 | -7 | 3
CC1CC(C)CN(S(=O)(=O)c2cccc3nsnc23)C1 (stereo not drawn) | 0 | -1 | -8 | i | -6 | -12 | 9 | 2
CN(Cc1ccccc1)S(=O)(=O)c1ccc(OCC(=O)NCc2cccnc2)cc1 | 4 | -5 | -19 | i | 14 | -1 | 25 | 5
c1ccc(-n2ncc3c(NCc4ccc5c(c4)OCO5)ncnc32)cc1 | -1 | -2 | -21 | i | 5 | -3 | . | 2
CNc1ccc(Br)cc(C(=O)/C=C/c2cccc(Cl)c2Cl)c1=O | -60 | -19 | . | . | . | 81 | -235 | 65* | eIF4H FP inh retest=18;PABP FP inh retest=56*
CCc1nc(SCC(=O)N2CCN(c3ccccc3)CC2)c2oc3ccccc3c2n1 | -3 | -9 | -18 | i | 9 | -1 | 4 | 6
CC(=O)Nc1ccc(C(=O)Nc2cccc(S(=O)(=O)NC3=NCCC3)c2)cc1 | -13 | -5 | . | i | -9 | . | . | .

Some of the compounds tested; the hit share may differ from the screen's.
